Compound activity: PubChem, Fisher Drug Discovery Resource Center
NPYLR7 ag: agonists of mosquito NPYLR7 receptor, primary screen, cell-based, Aedes aegypti, calcium fluorescence, mosquito biting behavior | activation, % at 10 µM | 270,000 tested, 0.15% active | HEK293T NPYLR7/Galpha15, GCaMP6s calcium fluorescence | Aedes aegypti neuropeptide Y-like receptor 7 (NPYLR7); in the data active = activation above about 40%;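 also: 0% = vehicle and 100% = reference agonist at the receptor; some compounds past the cut are filed as inactive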
NPYLR7 ag max-min: second read-out of NPYLR7 ag, no call of its own (marks repeat the call); activation, %; measured here: Max-Min RFU normalised activation; some inactives read as strong as hits;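 span of the calcium signal over five minutes; 0% = vehicle and 100% = native peptide agonist; compound fluorescence can raise it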
An asterisk follows results filed as active; & = joins results of further samples. These rows are one share of the data; rates above refer to the full screens.

SMILES	NPYLR7 ag	NPYLR7 ag max-min
CN1C(=O)NC(c2cccc(Cl)c2Cl)C2=C1CN(CC(=O)N1CCN(c3ccccc3F)CC1)C2=O (stereo not drawn)	-1	-3
CC(C)c1cc(N2CCCC(CO)(CCCc3ccccc3)C2)ncn1 (stereo not drawn)	5	0
O=C1CCCC(=O)C1=C(O)c1ccc(C(F)(F)F)cc1[N+](=O)[O-]	-18	-27
N#CC1=C(N2CCOCC2)SC(c2ccc([N+](=O)[O-])cc2)NC1=O (stereo not drawn)	4	1
Cc1ccc(/C=C2N=C(/C=C/c3ccccc3)OC/2=O)cc1	-3	-6
NCC1Cc2c(F)ccc(-c3nccs3)c2O1 (stereo not drawn)	4	0
CCOC(=O)c1sc2ncnc(NCC(=O)NC)c2c1C	4	0
CCCCOc1ccc(C(=O)NC(Cc2ccccc2)C(=O)Nc2nnc(-c3ccccc3)s2)cc1 (stereo not drawn)	2	6
Cc1cccc(CN(C(=O)C(=O)N2CCCC2)C(C)C)c1	-3	-10
CCCCN(Cc1cccn1Cc1ccc(Br)cc1)C(=O)CN(CCCOCC)C(=O)N(C)C	8	8
Cc1ccc(C(C)NS(=O)(=O)c2cccc(Cl)c2Cl)o1 (stereo not drawn)	4	3
CCN1CCN(C(=O)NC(C(=O)N[C@@H]2C(=O)N3[C@@H]2SC(C)(C)[C@@H]3C(=O)O)c2ccccc2)C(=O)C1=O (stereo partly drawn)	-4	-8

Next section; the last 2 above are carried over.
SMILES	NPYLR7 ag	NPYLR7 ag max-min
Cc1ccc(C(C)NS(=O)(=O)c2cccc(Cl)c2Cl)o1 (stereo not drawn)	4	3
CCN1CCN(C(=O)NC(C(=O)N[C@@H]2C(=O)N3[C@@H]2SC(C)(C)[C@@H]3C(=O)O)c2ccccc2)C(=O)C1=O (stereo partly drawn)	-4	-8
COc1cc(C(=O)N2CCCC(c3nnc4n3CCCCC4)C2)ccc1OC(F)F (stereo not drawn)	4	0
COc1cc(-c2ccc(C)s2)cc2c1OCCN(C(=O)C1C=CCN1)C2 (stereo not drawn)	0	-5
O=C(C1CCCO1)N1CCC(NCCCn2ccc3ccccc32)CC1 (stereo not drawn)	26	11
C=CCNC(=O)c1cccnc1N1CCN(Cc2ccncc2Cl)CC1	-6	-6
Cc1ccc(Cc2nsc(N3CCN(c4cccc(C(F)(F)F)c4)CC3)n2)cc1	-2	2
Cc1cn2c3c(=O)n(Cc4ccc(Cl)cc4Cl)c(=O)n(C)c3nc2n1CCN1CCOCC1	5	2
Cc1ccc(NC(=O)N(C)Cc2ccccc2F)cc1Cl	8	6
Cc1c(C(=O)N=c2sc3ccccc3n2C)sc2ncn(C)c(=O)c12	5	4
CCCCCn1c(N2CCCCC2)nc2c1c(=O)[nH]c(=O)n2C	0	-2
O=C(CSCc1ccc(F)cc1)N1CCN(Cc2ccc3c(c2)OCO3)CC1	19	8
Cc1nc(C)c(C(C)N(C)S(=O)(=O)c2ccccc2OC(F)(F)F)s1 (stereo not drawn)	5	3
Cc1ccc(NC(=O)NC23CC4CC(CC(C4)C2)C3)cc1	-4	-9
CCN1C(=O)NC(c2ccc(Cl)cc2Cl)C2=C1CN(CC(=O)NCC1COc3ccccc3O1)C2=O (stereo not drawn)	0	3
COCCCNC(=O)[C@@H](C)N1Cc2ccc(Nc3ncccn3)nc2C1=O	7	3
CCCc1cc(C(=O)N2CCC3(CCCN(CCOC)C3=O)C2)no1 (stereo not drawn)	3	3
OCc1ccccc1-c1nccc(CCC(F)(F)F)n1	1	0
Cc1nc2cc[nH]n2c(=O)c1CC(=O)NCC(C)(O)c1ccc(F)cc1F (stereo not drawn)	0	11
Cc1cc(C(=O)NNC(=O)C2CCCC2)c(C)o1	1	-1
CCCCOC(=O)C1=C(C)NC(=O)NC1c1ccc(N(C)C)cc1 (stereo not drawn)	3	0
CCCc1cc(N2CCN(Cc3n[nH]c(C)c3Cl)CC2)nc(C)n1	5	1
Cc1ccccc1NC(=O)CC(=O)NCc1ccc2nonc2c1	0	-3
CCC(=O)N1CCC(NC(C(N)=O)c2ccc(C#N)cc2)C(CC)C1 (stereo not drawn)	5	4
COc1cccc(CNC2CC(C)(C)Cc3nc(C(C)(C)C)ncc32)c1 (stereo not drawn)	6	6
CCC(c1cccnc1)N(C)C(=O)c1ccc(S(N)(=O)=O)cc1 (stereo not drawn)	17	8
Cc1ccc(CN(C)C(=O)c2cccc(S(N)(=O)=O)c2)c(C)c1	7	2
CC(C)c1ccc(NC(=O)CSc2nncc(=O)[nH]2)cc1	-3	-4
CCOCCCNC(=O)c1cc(NC(=O)C23CC4CC(CC(C4)C2)C3)ccc1N1CCC(C)CC1	2	4
O=C(CN1CCCC1=O)N1CCC(CO)(Cc2ccccc2)CC1	20	9
Cc1[nH]c2ccccc2c1N=Nc1ccc2c(c1)OCO2	-1	-4
CCCCN1CC(c2nc3ccccc3n2Cc2ccccc2Cl)CC1=O (stereo not drawn)	1	-3
Cc1ccc2sc(N(CCCN3CCOCC3)C(=O)c3ccc(C#N)cc3)nc2c1C	-3	-6
CCC/C=C/C(=O)N1CCN(S(=O)(=O)c2ccc(C#N)cc2)CC1	1	-1
CC(C)CNC(=O)c1ccc(CSc2nnc(-c3cccs3)n2-c2ccccc2F)cc1	3	8
C[C@H](NC(CCc1ccccc1)C(=O)O)C(=O)N1CCC[C@H]1C(=O)O (stereo partly drawn)	-3&-12	-9&4
Cc1nc(C(=O)NCCn2ncc3ccccc3c2=O)cs1	-3	-8
CC(C)(C)c1nc2cc(NC(=O)C3CC4CCCC(C3)C4=O)ccc2o1 (stereo not drawn)	4	0
O=C(CCNC(=O)N1CCc2ccccc2C1)OC1CCOC1 (stereo not drawn)	3	2
O=C(CCC1CCN(C(=O)C2CC=CCC2)CC1)NCc1cccnc1 (stereo not drawn)	1	2
COC(=O)c1ccc(COn2c(=O)c(-c3cc4ccccc4o3)[n+]([O-])c3ccccc32)cc1	-3	-10
CCN(CC)C(=O)Oc1ccc2c(ccn2Cc2ccc(C#N)cc2)c1-c1ccc(F)c(F)c1	2	-1
Cc1cccc(CNC(=O)C(C2CCCC2)N2CCN(C(=O)c3ccc(Cl)c(Cl)c3)CC2)c1 (stereo not drawn)	-11	-4
C=CCn1c(CN2CCN(c3ncnc4nc[nH]c34)CC2)nc2ccccc21	-2	7
Cc1csc(CN(C)c2ccc(C(=O)NCCC3CCCCN3C)cn2)n1 (stereo not drawn)	17	7
Cc1cc(C)cc(N2C(=O)CSC2c2ccc3c(c2)OCO3)c1 (stereo not drawn)	-7	-11
O=C(Nc1ccc(N2CCCCC2)nc1)C1COc2ccccc2O1 (stereo not drawn)	1	0
CCOC(=O)c1nc2cc(Cl)c(Cl)cc2nc1N1CCCN(C(=O)CCCC(=O)OC)CC1	3	-1
CC(C)CN(C/C=C/c1ccccc1)C(=O)C1CC2(CCNCC2)CN1 (stereo not drawn)	9	3
CCc1nc2c(OCc3ccc(OC)cc3)cccn2c1N(C)C(=O)c1cccs1	9	-1
O=c1cc(CSc2ccc(Cl)cc2)nc2nc[nH]n12	3	2
COc1ccc(CCN2C(=O)CC(Nc3ccc(OC)c(Cl)c3)C2=O)cc1 (stereo not drawn)	-1	-4
COc1cc2nc(NCCc3c(C)noc3C)nc(N)c2cc1OC	8	2
C=CCNC(=S)Nc1ccc(F)cc1Cl	12	14
Cc1cc(=O)oc2cc(O)c(O)cc12	-7	-14
Cc1cc(Oc2cccc(C)c2C)nc(SCc2cccc(C#N)c2)n1	21	15
Cc1nc(N2CCN(c3ccccn3)CC2)nc2c1C(=O)CC(c1cccs1)C2 (stereo not drawn)	8	8
CCCCCn1c(=N)c(C(=O)OCC)cc2c(=O)n3cccc(C)c3nc21	11	14
Oc1ccc(C2CCN(CC(O)c3ccccc3)CC2)cc1 (stereo not drawn)	13	14
Cc1noc(C(F)(F)F)c1C(=O)NCCc1ccccc1F	9	7
Cc1cccc(C2c3[nH]c4ccccc4c3CCN2C(=O)C(=O)CCc2ccccc2)n1 (stereo not drawn)	-4	-17
COCCN(Cc1cc(C)ccc1C)CC(O)COC(C)C (stereo not drawn)	26	33
Remaining list, next part:
SMILES	NPYLR7 ag	NPYLR7 ag max-min
CSCCCNC(=S)NNC(N)=O	-4	-4
Cc1c(C(C)NC(=O)c2ccnn2C)cnn1-c1cccc2ccccc12 (stereo not drawn)	4	2
COCc1cc(N(C)C(C)c2ccco2)n2ncnc2n1 (stereo not drawn)	2	1
NC(=O)c1c(NC(=O)CSc2nnc(-c3cccs3)n2C2CC2)sc2c1CCC2	4	5
CO[C@H](c1ccccc1)c1n[nH]c(Cc2ccccc2)n1	2	-1
COc1ccc(Cl)cc1-n1cc(S(=O)(=O)N(C)C)cn1	-4	-6
COc1ccccc1/C=C/CN1CCNC(=O)C1CC(=O)N1CCN(c2cnccn2)CC1 (stereo not drawn)	10	7
CCCNC(=O)C1CN(C(=O)c2ccc3noc(-c4ccccc4)c3c2)c2ccccc2O1 (stereo not drawn)	1	3
CCC(C)NCc1ccc(C)o1 (stereo not drawn)	9	10
CCC(NC(=O)CC(C)c1ccc(F)cc1)c1ncn[nH]1 (stereo not drawn)	0	-1
CCOc1ccccc1N1C(=O)CC(Sc2nc(O)c(CC)c(=O)[nH]2)C1=O (stereo not drawn)	0	31
CCCCN(C(=O)CCCCl)c1c(N)n(CCC)c(=O)[nH]c1=O	-3	-9
CN(C)C(=O)COc1ccc(NC(=O)c2ccc3c(c2)C(=O)N(C)C3=O)cc1	15	16
Cc1[nH]c(=O)sc1C(=O)NCc1ccc(F)cc1	-6	-8
COC(=O)c1ccc(NC(=O)NC2CCCNC2=O)c(C)c1 (stereo not drawn)	2	1
COc1ccc(N2CCN(c3cc(Cl)nc(SCC(=O)NC(C)CCc4ccccc4)n3)CC2)cc1 (stereo not drawn)	18	19
COc1ccc(CC2CN(C(=O)c3cc(C)oc3C)CCO2)cc1 (stereo not drawn)	15	5
COc1ccccc1OCCNC(=O)CCn1c(=O)oc2cc(Cl)ccc21	0	-7
Nc1ccc(Cl)c(S(=O)(=O)N2CCOCC2)c1	3	0
COC(=O)CCNC(=O)c1cn(Cc2cccc(Cl)c2)nn1	-5	-8
Cc1ccc(-n2ccc3nc(N4CCCCC4)ncc3c2=O)cc1C	-1	11
CC(C)CNC(=O)C1COC2(CCN(C(=O)C3CCC3)CC2)N1C(=O)c1ccccc1 (stereo not drawn)	-1	3
CCCCNC(=O)c1cc2n(n1)CCN(Cc1cccc(OC)c1)C2=O	0	9
O=C(/C=C/c1ccccc1)NCC1Cc2cc(Oc3ccccc3)ccc2O1 (stereo not drawn)	33	25

Nothing new here: 19 of the compounds above.
SMILES	NPYLR7 ag	NPYLR7 ag max-min
COc1ccc(Cl)cc1-n1cc(S(=O)(=O)N(C)C)cn1	-4	-6
COc1ccccc1/C=C/CN1CCNC(=O)C1CC(=O)N1CCN(c2cnccn2)CC1 (stereo not drawn)	10	7
CCCNC(=O)C1CN(C(=O)c2ccc3noc(-c4ccccc4)c3c2)c2ccccc2O1 (stereo not drawn)	1	3
CCC(C)NCc1ccc(C)o1 (stereo not drawn)	9	10
CCC(NC(=O)CC(C)c1ccc(F)cc1)c1ncn[nH]1 (stereo not drawn)	0	-1
CCOc1ccccc1N1C(=O)CC(Sc2nc(O)c(CC)c(=O)[nH]2)C1=O (stereo not drawn)	0	31
CCCCN(C(=O)CCCCl)c1c(N)n(CCC)c(=O)[nH]c1=O	-3	-9
CN(C)C(=O)COc1ccc(NC(=O)c2ccc3c(c2)C(=O)N(C)C3=O)cc1	15	16
Cc1[nH]c(=O)sc1C(=O)NCc1ccc(F)cc1	-6	-8
COC(=O)c1ccc(NC(=O)NC2CCCNC2=O)c(C)c1 (stereo not drawn)	2	1
COc1ccc(N2CCN(c3cc(Cl)nc(SCC(=O)NC(C)CCc4ccccc4)n3)CC2)cc1 (stereo not drawn)	18	19
COc1ccc(CC2CN(C(=O)c3cc(C)oc3C)CCO2)cc1 (stereo not drawn)	15	5
COc1ccccc1OCCNC(=O)CCn1c(=O)oc2cc(Cl)ccc21	0	-7
Nc1ccc(Cl)c(S(=O)(=O)N2CCOCC2)c1	3	0
COC(=O)CCNC(=O)c1cn(Cc2cccc(Cl)c2)nn1	-5	-8
Cc1ccc(-n2ccc3nc(N4CCCCC4)ncc3c2=O)cc1C	-1	11
CC(C)CNC(=O)C1COC2(CCN(C(=O)C3CCC3)CC2)N1C(=O)c1ccccc1 (stereo not drawn)	-1	3
CCCCNC(=O)c1cc2n(n1)CCN(Cc1cccc(OC)c1)C2=O	0	9
O=C(/C=C/c1ccccc1)NCC1Cc2cc(Oc3ccccc3)ccc2O1 (stereo not drawn)	33	25

Next section
SMILES	NPYLR7 ag	NPYLR7 ag max-min
CCN(CC)C(=O)Oc1ccc2c(ccn2Cc2ccc(OC(F)F)cc2)c1-c1ccc(F)c(Cl)c1	13	9
N#CCCCN1CCN(C(=O)c2ccc(-c3cc(-c4ccccc4)n[nH]3)cc2)CC1	1	7
CS(=O)(=O)CCC1NC(=O)N(CN2CCc3ccccc3C2)C1=O (stereo not drawn)	4	0
C=CCN(Cc1ccc(F)cc1)C(=O)c1c(C)nn(CC)c1C	25	14
CCCc1cc(CN(C)C(=O)c2ccc(F)c(OC)c2F)[nH]n1	11	2
Cn1c(=O)n(Cc2ccccc2F)c(=O)c2c1nc1n2CCCN1c1ccc(F)cc1	0	27
Cc1cc2c(=O)n(Cc3ccco3)c(SCC(=O)c3ccccc3)nc2s1	-12	-5
CCc1[nH]n(-c2cc(C)ccc2C)c(=O)c1C1=C(N2CCOCC2)C(=O)N(Cc2ccccc2)C1=O	-5	-1
NC(=O)c1cc(NC(=O)Cc2ccc3c(c2)CCCC3)ccc1F	-16	-20
Cc1ccc(-n2cccn2)c(-c2nccn2C2CCSC2)c1 (stereo not drawn)	5	0
